# FGF22 binding: binders of recombinant human FGF22 by thermal shift | Q9HCT0 | SYPRO orange fluorescence; percent of sucrose octasulfate shift, DMSO zero | calls only at 9.99 µM | 340,000 tested, 1.5% active | AID 651658;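 active means melting point raised past a set limit in the mean and every replicate; three in four hits are not shown here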
# Target sequence (Q9HCT0 whole entry, looked up): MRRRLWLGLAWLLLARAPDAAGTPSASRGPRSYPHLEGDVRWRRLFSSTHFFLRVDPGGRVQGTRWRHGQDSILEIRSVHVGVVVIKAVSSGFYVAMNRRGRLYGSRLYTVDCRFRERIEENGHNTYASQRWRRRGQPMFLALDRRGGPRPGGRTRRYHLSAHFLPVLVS
# Ecoli rRNA inh: selective bacterial rRNA inhibition in E. coli; E. coli WT GFP vs humanized-ribosome RFP mutants, fluorescence, 24 h; stronger effect = lower value; DMSO median 0, no signal -100; GFP signal change (wild-type ribosome), % (concentration not given with the values); 350,000 tested, 1.6% active; AID 720706;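 active means significant combined selectivity score with lowered wild-type GFP, culture density cut under 30%, mutant RFP and density less affected; inactive means any of these conditions unmet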; further: one replicate is shown; some compounds called inactive have numbers as strong as hits
# AF4-AF9 inh: blocks AF4 peptide binding to human AF9 | P42568 | AlphaScreen, biotin-AF4 peptide binding to FLAG-AF9 | inhibition, % at 10 µM | 350,000 tested, 0.47% active | AID 651704;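 active means every replicate reaching a set inhibition limit, whatever the replicate mean, cut at about 25% in these data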;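 further: 0% = plate neutral control median and 100% = total signal loss; the record names both 10 and 1 µM as test concentration; the first replicate is given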
# Target sequence (P42568 whole entry, looked up): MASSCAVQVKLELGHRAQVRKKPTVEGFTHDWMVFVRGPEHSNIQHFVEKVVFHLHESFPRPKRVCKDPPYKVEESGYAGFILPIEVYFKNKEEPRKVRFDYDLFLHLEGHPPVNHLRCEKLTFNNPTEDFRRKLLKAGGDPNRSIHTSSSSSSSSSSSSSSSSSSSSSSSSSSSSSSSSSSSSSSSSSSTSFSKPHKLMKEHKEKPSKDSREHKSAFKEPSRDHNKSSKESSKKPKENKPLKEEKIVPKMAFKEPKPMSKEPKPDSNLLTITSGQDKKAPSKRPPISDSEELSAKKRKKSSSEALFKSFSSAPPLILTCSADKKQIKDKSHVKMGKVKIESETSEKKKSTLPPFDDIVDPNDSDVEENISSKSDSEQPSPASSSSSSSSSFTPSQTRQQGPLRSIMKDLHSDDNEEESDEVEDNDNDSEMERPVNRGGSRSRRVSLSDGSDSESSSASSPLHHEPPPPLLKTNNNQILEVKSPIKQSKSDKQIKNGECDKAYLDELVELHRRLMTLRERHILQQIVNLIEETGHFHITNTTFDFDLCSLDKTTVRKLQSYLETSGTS
# Ecoli rRNA inh OD600: second read-out of Ecoli rRNA inh, no call of its own (marks repeat the call); OD600 change, %; measured here: OD600 growth;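 optical density of the mix in the first replicate; 0 = DMSO median and -100 = no signal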
# Ecoli rRNA inh RFP: recorded beside Ecoli rRNA inh, whose call it bears; RFP signal change, %; measured here: RFP humanized mutant strains;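 first replicate; 0 = DMSO median and -100 = no signal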
# Starred values were filed as active, the others as inactive; i = inactive; x = no result given; & = joins results of further samples. Only part of the results is shown, so the mix of outcomes need not match the whole.
cpd	Ecoli rRNA inh OD600	FGF22 binding	Ecoli rRNA inh	Ecoli rRNA inh RFP	AF4-AF9 inh	mol
1	-25	i	-19	-4.0	0.7	CC(C)c1ccc(CN2CCC(C)(Oc3ccc(Cl)cc3)C2)cc1 (stereo not given)
2	-3	i	3	0.0	6.7	CS(=O)(=O)N1[C@H](C#N)[C@@H](c2ccc(C#CC3CCCCC3)cc2)[C@@H]1CO
3	16	i	2	-3.7	-2.4	Cc1ccccc1S(=O)(=O)N1C[C@@H](O)COC[C@@H]2O[C@H](CC(=O)N3CCOCC3)CC[C@H]21
4	-7	i	0	0.3	-5.0	CO[C@@H]1CN(C)C(=O)c2cc(NS(=O)(=O)c3ccccc3C)ccc2OC[C@H](C)N(C)C[C@@H]1C
5	-7	i	1	-0.4	-13	CN(C)C(=O)C[C@H]1CC[C@@H]2[C@H](COC[C@@H](O)CN2CC2CCCC2)O1
6	-3	i	-1	-0.2	8.4	COc1ccc(NC(=O)Nc2ccc3c(c2)[C@H]2C[C@@H](CC(=O)N4CCCCC4)O[C@H](CO)[C@H]2O3)cc1
7	9	x	8	2.5	0.0	CCN1C(=O)N(C(C)=O)[C@H]2C[C@H](C(=O)N3CCCC3)[C@H](C)[C@H](c3ccccc3)C[C@H]21
8	4	i	-2	-1.4	-2.7	CN(C)Cc1cn(CC[C@@H]2CC[C@H](NS(=O)(=O)c3ccccc3)[C@H](CO)O2)nn1
9	-1	i	-2	5.0	-7.6	COc1cccc(C(=O)Nc2ccc3c(c2)OC[C@H](C)N(C(=O)C2CCCC2)C[C@H](C)[C@H](OC)CN(C)C3=O)c1
10	-8	i	0	-0.3	-1.4	CC(C)CC#Cc1cnc2c(c1)C(=O)N([C@@H](C)CO)C[C@@H](C)[C@@H](CN(C)C(=O)Cc1ccccc1)O2
11	-39	i	-7	14	-1.8	Cc1ccccc1S(=O)(=O)N1[C@H](C#N)[C@H](c2ccc(-c3ccc(F)cc3)cc2)[C@@H]1CO
12	-5	i	-6	0.5	1.4	O=S(=O)(N[C@@H]1CC[C@H](CCn2cc(Cc3ccccc3)nn2)O[C@@H]1CO)c1ccccc1F
13	-3	i	11	0.1	-0.2	CCCCNC(=O)C(NC(=O)c1ccc(C(F)(F)F)cc1)C(=O)c1ccccc1 (stereo not given)
14	8	i	2	-0.9	8.0	OC(c1cccc(Cl)c1)c1nc(-c2ccc(F)c(Cl)c2)cs1 (stereo not given)
15	3	i	1	-2.5	0.4	CO[C@H]1CN(C)C(=O)c2cc(NC(C)=O)ccc2OC[C@H](C)N(Cc2ccccn2)C[C@@H]1C
16	7	i	1	-0.7	-1.2	CCCNC(=O)Nc1ccc2c(c1)OC[C@H](C)N(Cc1cncnc1)C[C@H](C)[C@H](OC)CN(C)C2=O
17	16	i	11	-3.0	-1.8	COc1ncccc1-c1cnc2cccnn12
18	-13	i	0	-0.6	2.2	C[C@@H]1CN([C@H](C)CO)C(=O)c2cccc(NC(=O)Nc3ccc(C(F)(F)F)cc3)c2O[C@@H]1CN(C)S(C)(=O)=O
19	-20	i	3	28	-0.8	O=C(C[C@H]1C[C@H]2c3cc(NS(=O)(=O)c4ccc(F)cc4)ccc3O[C@H]2[C@H](CO)O1)NC1CCCC1
20	9	i	1	-2.6	-13	COc1ccc(S(=O)(=O)N(C)C[C@H]2OCCCC[C@@H](C)Oc3ccc(NC(=O)Nc4ccc(C(F)(F)F)cc4)cc3C(=O)N([C@H](C)CO)C[C@@H]2C)cc1
21	7	i	1	0.4	-1.5	CO[C@H]1CN(C)C(=O)c2ccc(NS(C)(=O)=O)cc2OC[C@@H](C)N(CC2CC2)C[C@@H]1C
22	3	i	-1	0.8	0.5	COc1ccc(C(=O)Nc2ccc3c(c2)OC[C@H](C)N(C(C)=O)C[C@H](C)[C@H](OC)CN(C)C3=O)cc1
23	4	i	-1	0.4	-1.9	Cc1ccc(S(=O)(=O)Nc2ccc3c(c2)C(=O)N([C@@H](C)CO)C[C@@H](C)[C@H](CN(C)C(=O)CCCN(C)C)OCCCC[C@H](C)O3)cc1
24	-16	i	-4	-0.1	1.8	Cc1ccc(C)c(N2CCN(C(=O)CCc3nc(-c4cccc(F)c4)no3)CC2)c1
25	10	i	4	-2.3	0.9	CC(C)C(=O)N[C@@H]1c2ccccc2CC[C@@H]1O
26	-7	i	1	-0.9	0.1	CN1C(=O)c2cc(NC(=O)c3cscn3)ccc2OC[C@@H]2O[C@H](CC(=O)N3CCCCC3)CC[C@H]21
27	7	i	0	-0.3	-7.7	C[C@@H]1CCCCO[C@@H](CN(C)S(=O)(=O)c2ccccc2)[C@@H](C)CN([C@@H](C)CO)C(=O)c2cc(NS(=O)(=O)c3ccccc3)ccc2O1
28	-3	i	-9	2.3	0.8	C=CCN(c1ccccc1OC)S(=O)(=O)c1cccc(C(=O)OC2CCOC2=O)c1 (stereo not given)
29	9	i	13	3.6	0.3	COc1cccc(CN2CC(C(=O)NCCc3nccs3)CCC2=O)c1 (stereo not given)
30	-10	i	-2	2.6	5.0	C[C@H](CO)N1C[C@H](C)[C@@H](CN(C)Cc2ccc(C(F)(F)F)cc2)Oc2ccc(NC(=O)CCN3CCOCC3)cc2CC1=O
31	0	i	2	-1.0	3.1	CCN(CC(=O)Nc1c(F)cccc1F)C(=O)CCNC(=O)c1ccco1
32	3	i	2	-2.0	-0.2	COCC(=O)Nc1ccc2c(c1)OC[C@@H](C)N(C(=O)CC1CC1)C[C@@H](C)[C@@H](OC)CN(C)C2=O
33	-1	i	0	-0.5	1.2	C[C@H](CO)N1C[C@H](C)[C@H](CN(C)S(=O)(=O)c2ccccc2)OCCCC[C@H](C)Oc2ccc(NC(=O)NC3CCCCC3)cc2C1=O
34	4	i	3	-3.8	-10	C[C@H](CO)N1C[C@H](C)[C@H](CN(C)S(=O)(=O)c2ccccc2)OCCCC[C@H](C)Oc2ccc(NC(=O)Nc3cccc4ccccc34)cc2C1=O
35	-15&2	i	-10&4	3.6&-3.4	4.4&3.3&8.1	C[C@@H]1CN([C@@H](C)CO)S(=O)(=O)c2ccc(C#CC3CCCCC3)cc2O[C@@H]1CN(C)Cc1cccnc1
36	1	i	-1	-0.7	-2.2	C[C@H]1CN([C@@H](C)CO)C(=O)c2ccccc2-c2ccccc2CO[C@H]1CN(C)S(=O)(=O)c1cccc(C#N)c1
37	6	i	0	0.1	6.4	C[C@@H]1CCCCO[C@H](CN(C)S(=O)(=O)c2ccccc2)[C@@H](C)CN([C@@H](C)CO)C(=O)c2cc(NC(=O)CCCN(C)C)ccc2O1
38	-6	i	-1	-3.7	1.2	COc1ccc2c3c(n(C)c2c1)[C@H](CO)NCC31CCN(S(=O)(=O)c2ccccc2)CC1
39	14	i	22	4.3	0.1	OC[C@@H]1CN(CCNc2ccccc2)C[C@H](n2cnc3c(NCc4ccncc4)ncnc32)O1
40	-10	i	-5	-0.7	2.5	COC(=O)C[C@@H]1CC[C@H]2[C@H](COc3ccc(NC(=O)c4cccc(Cl)c4)cc3C(=O)N2C)O1
41	-3	i	-1	5.4	-0.4	COc1ccc(NC(=O)Nc2ccc3c(c2)C(=O)N([C@@H](C)CO)C[C@H](C)[C@H](CN(C)Cc2ccc(Cl)c(Cl)c2)O3)cc1
42	2	i	-1	0.2	-7.1	CCC(=O)N(C)C[C@@H]1Oc2ncc(-c3cccc(OC)c3)cc2C(=O)N([C@H](C)CO)C[C@@H]1C
43	4	i	3	-2.5	-3.0	C[C@H]1CN([C@@H](C)CO)C(=O)c2cc(C#Cc3cccnc3)cnc2O[C@H]1CN(C)S(C)(=O)=O
44	7	i	2	-3.0	-2.2	O=C(C[C@H]1CC[C@@H]2[C@H](COC[C@@H](O)CN2Cc2ccncc2)O1)NCC1CC1
45	-1	i	-7	1.3	-1.4	COc1cccc(CN(CCC(=O)O)Cc2cccc(OC)c2)c1
46	4	i	1	-2.3	2.4	COc1ccccc1-c1ccc2c(c1)C(C)(Cc1ccc(Cl)cc1)C(=O)N2 (stereo not given)
47	-3	i	0	-1.0	-2.3	O=C(NCC[C@@H]1CC[C@@H](NC(=O)C2CC2)[C@@H](CO)O1)c1cc(Cl)cc(Cl)c1
48	-3	i	0	-0.2	-1.6	O=C(Cc1ccccn1)NCC[C@@H]1CC[C@@H](NC(=O)CN2CCOCC2)[C@H](CO)O1
49	4&0	i	0&-1	9.8&4.7	-0.5&-1.6&-0.4	C[C@H](CO)N1C[C@H](C)[C@@H](CN(C)CC2CCOCC2)Oc2cc(C#Cc3ccccc3F)ccc2S1(=O)=O
50	18	i	15	-2.3	-0.9	COC(=O)C1C2CCCCC1C(=O)O2 (stereo not given)
51	4	i	12	0.3	0.7	CC1CCN(C(=O)c2ncn3c2C(=O)N[C@@H](C)C3)CC1
52	-8	i	-2	1.2	-8.8	COc1ccc(S(=O)(=O)N(C)C[C@H]2Oc3ccc(NC(=O)C4CC4)cc3CC(=O)N([C@H](C)CO)C[C@@H]2C)cc1
53	0	i	0	-3.5	0.8	C[C@@H]1CN([C@@H](C)CO)C(=O)Cc2cc(NS(=O)(=O)c3cn(C)cn3)ccc2O[C@H]1CN(C)S(=O)(=O)c1cn(C)cn1
54	-7	i	1	0.6	-0.7	C[C@@H]1CN([C@H](C)CO)C(=O)c2cc(NC(=O)Nc3ccc(F)cc3)ccc2O[C@H]1CN(C)S(=O)(=O)c1ccc(F)cc1
55	-17*	i	-25*	-2.4*	0.2	O=S(=O)(c1ccccc1)N1C[C@@H]2[C@H](c3ccccc31)[C@H](CO)N2Cc1ccccc1
56	4	i	0	-2.6	-2.2	O=C(C1CCOCC1)N1CC2(C1)[C@@H](c1ccccc1)[C@@H](CO)N2C(=O)CC1CC1
57	-4	i	0	2.0	3.6	COc1ccc(NC(=O)Nc2ccc3c(c2)C(=O)N([C@@H](C)CO)C[C@@H](C)[C@@H](CN(C)C(=O)NC(C)C)O3)cc1
58	5	i	1	-2.5	-0.7	Cc1ccc(S(=O)(=O)Nc2ccc3c(c2)C(=O)N([C@@H](C)CO)C[C@@H](C)[C@@H](CN(C)C(=O)Nc2cccc4ccccc24)OCCCC[C@@H](C)O3)cc1
59	3&-3	i	0&0	-0.8&0.3	-2.6&-0.3&-0.8	C[C@@H]1CN([C@H](C)CO)C(=O)CCCn2nncc2CO[C@@H]1CN(C)S(=O)(=O)c1ccc(Cl)cc1
60	1	i	1	-3.7	0.6	CC(C)C#Cc1cnc2c(c1)C(=O)N([C@@H](C)CO)C[C@H](C)[C@@H](CN(C)C(=O)CC1CC1)O2

# More results.
cpd	Ecoli rRNA inh OD600	FGF22 binding	Ecoli rRNA inh	Ecoli rRNA inh RFP	AF4-AF9 inh	mol
61	-2	i	3	0.2	1.0	O=C(CN1CCOCC1)NCC[C@@H]1CC[C@@H](NC(=O)Cc2ccccn2)[C@@H](CO)O1
62	13	i	6	-1.1	-0.5	C=CCn1nc(C(=O)N2CCOCC2)cc1-c1sc(NC(=O)c2ccccc2)nc1C
63	10	i	1	0.6	0.7	COc1ccccc1S(=O)(=O)N[C@H]1C=C[C@@H](CC(=O)N2CCN(C)CC2)O[C@H]1CO
64	2	i	3	-1.0	-3.5	C[C@H]1CN([C@@H](C)CO)C(=O)c2cc(NC(=O)NC3CCCCC3)ccc2O[C@H]1CN(C)S(C)(=O)=O
65	4	i	-1	-1.5	-0.8	C[C@H](NC(=O)[C@@H]1[C@@H](CO)[C@@H]2Cn3c(cccc3=O)[C@H]1N2Cc1cccnc1)c1ccccc1
66	7	i	3	0.7	1.3	O=C(CC1CC1)Nc1ccc2c(c1)[C@H]1C[C@@H](CC(=O)NC3CCCCC3)O[C@H](CO)[C@H]1O2

# Source: PubChem BioAssay (Broad Institute)
